From PubChem
UUG fidelity: alters start codon recognition fidelity in yeast; S. cerevisiae UUG-firefly luciferase reporter, luminescence/redox ratio; activity score, % at 18.7 µM; hit rate 0.13% among 350,000; AID 602363;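 active = replicate mean at a twofold rise or more, about +100% in these data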;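 note: firefly luciferase made from a UUG start codon reports start codon fidelity; reporter light over untreated wells divided by growth signal over untreated wells; some hits fall short of that in this replicate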
* hit, by the source's call.

Preview:
canonical_smiles	UUG fidelity
CC(C)CN(C[C@H]1N[C@H](CO)[C@H]1c1ccccc1)C(=O)CN(C)C	6
OC[C@H]1[C@@H](c2ccc(C#CC3(O)CCCC3)cc2)[C@@H]2CN(Cc3cccnc3)CCCCN12	-1
CC(=O)N1CCCCN2[C@H](CO)[C@@H](c3ccc(-c4ccncc4)cc3)[C@@H]2C1	-11
CO[C@@H]1CN(C)C(=O)c2ccc(NS(=O)(=O)c3ccccc3)cc2OC[C@H](C)N(Cc2ccccn2)C[C@@H]1C	6
CO[C@H]1CN(C)C(=O)c2cc(NC(=O)C3CC3)ccc2OC[C@H](C)N(Cc2ccncc2)C[C@@H]1C	9

Main list, from the start:
canonical_smiles	UUG fidelity
CC(C)CN(C[C@H]1N[C@H](CO)[C@H]1c1ccccc1)C(=O)CN(C)C	6
OC[C@H]1[C@@H](c2ccc(C#CC3(O)CCCC3)cc2)[C@@H]2CN(Cc3cccnc3)CCCCN12	-1
CC(=O)N1CCCCN2[C@H](CO)[C@@H](c3ccc(-c4ccncc4)cc3)[C@@H]2C1	-11
CO[C@@H]1CN(C)C(=O)c2ccc(NS(=O)(=O)c3ccccc3)cc2OC[C@H](C)N(Cc2ccccn2)C[C@@H]1C	6
CO[C@H]1CN(C)C(=O)c2cc(NC(=O)C3CC3)ccc2OC[C@H](C)N(Cc2ccncc2)C[C@@H]1C	9
COCC(=O)N1CCCCN2[C@H](CO)[C@H](c3ccc(-c4ccc(C)cc4)cc3)[C@H]2C1	1
CN(C)CC(=O)N1C[C@@H]2[C@H](c3ccccc31)[C@H](CO)N2Cc1cc(F)ccc1F	-5
CC(C)[C@@H](C)NC(=O)N(C)C[C@H]1OCc2ccccc2-c2c(n(C)c3ccccc23)C(=O)N([C@@H](C)CO)C[C@@H]1C	8
C[C@H](CO)N1C[C@H](C)[C@@H](CN(C)Cc2ccc(C(=O)Nc3ccccc3N)cc2)Oc2ccc(NS(=O)(=O)c3ccc(Cl)cc3)cc2C1=O	25
CC(C)NC(=O)Nc1ccc2c(c1)CC(=O)N([C@@H](C)CO)C[C@@H](C)[C@@H](CN(C)Cc1ccc(C(=O)O)cc1)O2	-14
Cc1cc(C(=O)Nc2cccc3c2O[C@@H](CN(C)C(=O)Nc2ccc4c(c2)OCO4)[C@@H](C)CN([C@H](C)CO)C3=O)n(C)n1	2
O=C(c1ccccc1F)N1C[C@H]2[C@@H](c3ccccc31)[C@H](CO)N2C(=O)c1ccc(F)cc1	10
C[C@H]1CN([C@@H](C)CO)C(=O)c2cccc(NS(=O)(=O)c3ccc(Cl)cc3)c2O[C@@H]1CN(C)C(=O)NC1CCCCC1	4
O=C(Cc1ccccc1)N1C[C@H]2[C@@H](c3ccccc31)[C@H](CO)N2C(=O)C1CC1	12
C[C@@H]1CN([C@@H](C)CO)C(=O)c2cc(NS(=O)(=O)c3ccccc3)ccc2O[C@H]1CN(C)Cc1ccc(C(F)(F)F)cc1	7
C[C@@H]1CN([C@@H](C)CO)C(=O)c2cccc(NS(=O)(=O)c3ccc(Cl)cc3)c2O[C@H]1CN(C)C(=O)Nc1ccc(C(F)(F)F)cc1	-10
COCCNC(=O)C[C@@H]1C[C@H]2c3cc(NC(=O)NC4CCCC4)ccc3O[C@H]2[C@H](CO)O1	-1
O=C(C[C@@H]1CC[C@@H]2[C@H](COC[C@H](O)CN2S(=O)(=O)c2ccc(Cl)cc2)O1)NCCN1CCCC1	-3
CCCNC(=O)[C@H]1[C@H](CO)[C@H]2Cn3c(ccc(/C=C/c4ccccc4)c3=O)[C@@H]1N2CCC	-2
OC[C@@H]1[C@@H](c2ccc(C#CC3(O)CCCC3)cc2)[C@@H]2CN(Cc3ccncc3)CCCCN12	10
C/C=C/c1ccc([C@@H]2[C@@H](CN(CC)C(=O)CC)N(C(C)=O)[C@H]2CO)cc1	3
C[C@H](CO)N1C[C@H](C)[C@H](CN(C)C(=O)NC2CCCCC2)Oc2ccc(NS(=O)(=O)c3ccccc3)cc2C1=O	1
C[C@H](NC(=O)C[C@H]1CC[C@@H]2[C@H](COC[C@@H](O)CN2C(=O)Nc2cc(Cl)cc(Cl)c2)O1)c1ccccc1	-7
O=S(=O)(NC[C@H]1[C@H](c2ccccc2)[C@H](CO)N1CC1CC1)c1ccccc1	17
Cc1cc(C(=O)Nc2cccc3c2O[C@@H](CN(C)C(=O)NC(C)C)[C@H](C)CN([C@@H](C)CO)C3=O)n(C)n1	7
C[C@H](CO)N1C[C@H](C)[C@@H](CN(C)Cc2ccncc2)Oc2ccc(NC(=O)Cc3cn(C)c4ccccc34)cc2CC1=O	-7
C[C@@H]1CN([C@@H](C)CO)C(=O)c2cccc(NC(=O)C3CCOCC3)c2O[C@@H]1CN(C)C	-1
C[C@H]1CN([C@@H](C)CO)C(=O)c2cc(NC(=O)CCN3CCOCC3)ccc2O[C@H]1CN(C)C(=O)Nc1ccccc1	-1
O=C(C1CCCC1)N1C[C@@H]2[C@H](c3ccccc31)[C@H](CO)N2C(=O)Nc1cccc(F)c1	43
CO[C@@H]1CN(C)C(=O)c2ccc(NC(=O)c3nc4ccccc4s3)cc2OC[C@H](C)N(Cc2ccncc2)C[C@H]1C	6

New compounds follow.
canonical_smiles	UUG fidelity
OC[C@H]1[C@H](c2ccc(C#CC3CC3)cc2)[C@@H]2CN(CCC(F)(F)F)CCCCN12	18
CCC(=O)Nc1ccc2c(c1)OC[C@H](C)N(Cc1ccccc1OC)C[C@@H](C)[C@@H](OC)CN(C)C2=O	-1
C[C@@H]1CN([C@H](C)CO)C(=O)Cc2cc(NC(=O)c3ccncc3)ccc2O[C@@H]1CN(C)C	-10
COC(=O)N(C)C[C@@H]1OCc2ccccc2-c2ccccc2C(=O)N([C@H](C)CO)C[C@@H]1C	-2
CO[C@@H]1CN(C)C(=O)c2cc(NS(=O)(=O)c3ccccc3)ccc2OC[C@@H](C)N(Cc2nccs2)C[C@H]1C	-9
O=S(=O)(c1ccccc1F)N1CCCCN2[C@@H](CO)[C@@H](c3ccc(-c4cncnc4)cc3)[C@@H]2C1	-11
C/C=C/c1ccc([C@H]2[C@H](CO)N(C(C)=O)[C@H]2CN(C)C(=O)c2ccccn2)cc1	-2
COc1cccc(NC(=O)C[C@H]2CC[C@H]3[C@H](COc4ccc(NC(=O)c5ccccc5F)cc4C(=O)N3C)O2)c1	18
C[C@H]1CN([C@@H](C)CO)C(=O)c2cc(NS(=O)(=O)c3cccs3)ccc2O[C@@H]1CN(C)C	-12
O=S(=O)(Cc1ccccc1)N1CCCCN2[C@H](CO)[C@@H](c3ccc(-c4ccccc4)cc3)[C@@H]2C1	-12
CC(C)NC(=O)N(C)C[C@H]1Oc2c(NC(=O)Nc3ccccc3)cccc2C(=O)N([C@@H](C)CO)C[C@@H]1C	-16
COc1ccc(C#Cc2ccc([C@@H]3[C@@H](CO)N4CCCCN(Cc5ccncc5)C[C@H]34)cc2)cc1	-11
CN1c2ccc(-c3ccc(F)cc3)cc2[C@@H]2[C@@H](CCN2S(=O)(=O)c2cccc(F)c2)[C@H]1CO	-15
COCC(=O)N1[C@@H](CO)[C@@H]2c3ccccc3N(C(=O)Nc3ccccc3F)C[C@@H]21	1
O=C(NC1CCC1)[C@@H]1[C@@H](CO)[C@@H]2Cn3c(cccc3=O)[C@@H]2N1CC1CCOCC1	-14
COc1cccc(C(=O)N2C[C@@H]3[C@H](c4ccccc42)[C@H](CO)N3Cc2ccccc2F)c1	-11
CO[C@H]1CN(C)C(=O)c2ccc(NS(=O)(=O)c3ccc(Cl)cc3)cc2OC[C@@H](C)N(C(=O)NC(C)C)C[C@@H]1C	6
COc1ccc(-c2ccc3c(c2)[C@@H]2[C@@H](CCN2Cc2ccncc2)[C@@H](CO)N3)cc1	-6
C[C@H](CO)N1C[C@H](C)[C@H](CN(C)C(=O)Nc2cccc(F)c2)OCc2ccccc2-c2c(n(C)c3ccccc23)C1=O	15
CCC(=O)N1[C@@H](CO)[C@H](c2ccc(-c3ccccc3)cc2)[C@@H]1CNC(=O)COC	6
COc1ccc(CN2[C@@H](CO)[C@@H]3c4ccccc4NC[C@@H]32)cc1	-5
C[C@@H]1CN([C@H](C)CO)C(=O)c2cccc(NS(=O)(=O)c3cccs3)c2O[C@H]1CN(C)Cc1ccc(Oc2ccccc2)cc1	-5
COCC#Cc1ccc([C@@H]2[C@@H](CO)N3CCCCN(C(=O)Nc4cc(F)ccc4F)C[C@@H]23)cc1	14
CN(C)CC#Cc1ccc([C@H]2[C@H]3CN(C(=O)Nc4cc(F)ccc4F)CCCCN3[C@H]2CO)cc1	2
CN(C)C(=O)c1cccc(-c2ccc3c(c2)[C@@H]2[C@@H](CCN2C(=O)Cc2ccccc2)[C@@H](CO)N3)c1	1
OC[C@H]1[C@@H](c2ccc(-c3cccnc3)cc2)[C@@H]2CN(CC3CC3)CCCCN12	-4
CN1c2ccc(-c3ccccc3F)cc2[C@@H]2[C@@H](CCN2S(=O)(=O)c2ccc(F)cc2)[C@H]1CO	-18
C[C@H](CO)N1C[C@H](C)[C@@H](CN(C)C(=O)Nc2ccc(C(F)(F)F)cc2)Oc2c(NC(=O)c3ccc(-c4nccs4)cc3)cccc2C1=O	8
C[C@@H]1CN([C@@H](C)CO)C(=O)CCCn2nncc2CO[C@@H]1CN(C)Cc1ccc2c(c1)OCCN2C	21
C[C@@H]1CN([C@H](C)CO)C(=O)Cc2cc(NC(=O)C3CC3)ccc2O[C@@H]1CN(C)S(=O)(=O)c1ccc(Cl)cc1	8

Next part:
canonical_smiles	UUG fidelity
CC(=O)N1CCCCN2[C@H](CO)[C@H](c3ccc(-c4ccc(F)cc4)cc3)[C@@H]2C1	-3
CC(C)NC(=O)N1[C@H](CO)[C@@H]2c3ccccc3N(C(=O)Nc3ccccc3)C[C@@H]21	-3
CC(C)NC(=O)N1[C@H](CO)[C@@H](c2ccccc2)[C@H]1CNC(=O)CN(C)C	14
Cc1noc(C)c1NC(=O)Nc1cccc2c1O[C@@H](CN(C)C(=O)NC1CCCCC1)[C@H](C)CN([C@H](C)CO)C2=O	-6
CCCNC(=O)[C@H]1[C@H](CO)[C@H]2Cn3c(cccc3=O)[C@H]2N1C(=O)C1CCC1	8
CCNC(=O)C[C@H]1CC[C@H]2[C@@H](COC[C@H](O)CN2C(=O)Nc2ccc3c(c2)OCO3)O1	-7
CO[C@H]1CN(C)C(=O)c2ccc(NC(=O)C3CC3)cc2OC[C@@H](C)NC[C@H]1C	1
CNC(=O)C[C@H]1CC[C@@H]2[C@H](COC[C@@H](O)CN2Cc2ccncc2)O1	3
CO[C@@H]1CN(C)C(=O)c2ccc(NC(=O)C3CCCC3)cc2OC[C@H](C)N(C)C[C@@H]1C	-1
CO[C@H]1CN(C)C(=O)c2cc(NS(=O)(=O)c3ccccc3)ccc2OC[C@H](C)N(Cc2cccnc2)C[C@@H]1C	6
OC[C@@H]1[C@@H](c2ccc(-c3ccc(F)cc3)cc2)[C@H]2CN(CCC(F)(F)F)CCCCN12	8
OC[C@@H]1[C@H](c2ccc(-c3ccccc3F)cc2)[C@@H]2CN(Cc3ccncc3)CCCCN12	-11
CO[C@@H]1CN(C)C(=O)c2ccc(NC(=O)Cc3ccccc3)cc2OC[C@H](C)N(C(C)=O)C[C@H]1C	2
Cc1noc(C)c1NC(=O)N(C)C[C@H]1Oc2ccc(NS(C)(=O)=O)cc2C(=O)N([C@@H](C)CO)C[C@@H]1C	-20
COc1ccc(C#Cc2ccc([C@@H]3[C@H](CO)N4CCCCN(Cc5ccncc5)C[C@@H]34)cc2)cc1	6
N#Cc1cccc(-c2ccc3c(c2)[C@@H]2[C@@H](CCN2C(=O)C2CCCCC2)[C@@H](CO)N3)c1	-10
Cc1noc(C)c1NC(=O)N(C)C[C@H]1Oc2ccc(NC(=O)Cc3cn(C)c4ccccc34)cc2C(=O)N([C@@H](C)CO)C[C@H]1C	7
CCC(=O)N(CC(C)C)C[C@H]1[C@H](c2ccccc2)[C@@H](CO)N1C(=O)C1CCC1	-2
C[C@@H]1CN([C@H](C)CO)C(=O)c2cc(NC(=O)Nc3ccccc3)ccc2O[C@@H]1CN(C)S(=O)(=O)c1ccc(Cl)cc1	-7
CCC(=O)N1C[C@@H](C)[C@H](OC)CN(C)C(=O)c2ccc(NC(=O)c3ccc(F)cc3)cc2OC[C@H]1C	4
CO[C@H]1CN(C)C(=O)c2cc(NC(=O)Nc3cc(F)ccc3F)ccc2OC[C@@H](C)N(C(=O)c2cnccn2)C[C@@H]1C	-1
COc1ccc(S(=O)(=O)N(C)C[C@@H]2OCc3ccccc3-c3ccccc3C(=O)N([C@@H](C)CO)C[C@H]2C)cc1	8
O=S(=O)(Cc1ccccc1)N1CCCCN2[C@H](C1)[C@H](c1ccc(-c3ccccc3)cc1)[C@@H]2CO	4
CCCC(=O)Nc1ccc2c(c1)OC[C@H](C)N(Cc1nccs1)C[C@H](C)[C@@H](OC)CN(C)C2=O	-6
CO[C@@H]1CN(C)C(=O)c2cc(NS(C)(=O)=O)ccc2OC[C@H](C)N(CCC(F)(F)F)C[C@@H]1C	6

Arranged by molar mass (smallest number first): 5 of the compounds above
canonical_smiles	UUG fidelity
CNC(=O)C[C@H]1CC[C@@H]2[C@H](COC[C@@H](O)CN2Cc2ccncc2)O1	3
CCCNC(=O)[C@H]1[C@H](CO)[C@H]2Cn3c(cccc3=O)[C@H]2N1C(=O)C1CCC1	8
CO[C@H]1CN(C)C(=O)c2ccc(NC(=O)C3CC3)cc2OC[C@@H](C)NC[C@H]1C	1
N#Cc1cccc(-c2ccc3c(c2)[C@@H]2[C@@H](CCN2C(=O)C2CCCCC2)[C@@H](CO)N3)c1	-10
CO[C@@H]1CN(C)C(=O)c2ccc(NC(=O)Cc3ccccc3)cc2OC[C@H](C)N(C(C)=O)C[C@H]1C	2

Only part of the results is shown (hit frequency here may not be typical).
